Assay outcomes deposited in PubChem by several laboratories.
Arbovirus inh = arbovirus infection inhibition; inhibition, % at 10 µM; arbovirus infection cell-based antiviral screen; 200,000 compounds, 0.37% hits;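 active = inhibition from about 30%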;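 also: bluetongue infection of BSR cells; cell survival read as ATP light after 72 h; 0% = infected wells without compound and 100% = uninfected wells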
Mtb growth = M. tuberculosis H37Rv growth inhibitors, H37Rv strain (AID 1626); M. tuberculosis H37Rv growth inhibition; higher % means a stronger effect; one-dose inhibition, % at 10 µM; IC50 in µM for titrated hits; 220,000 compounds, 0.95% hits;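 active = confirmed in a dose series; inconclusive = inhibition above 80% but not taken into the dose series; inactive = below 80% or under 30% at every dose of the series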;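 also: bacteria incubated seven days before Alamar blue readout; 0% = bacteria only wells and 100% = bacteria with antibiotic wells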
Mtb bLac sens = beta-lactam sensitization of Mtb H37Rv; inhibition, % at 25 µM; 330,000 compounds, 0.27% hits; M. tuberculosis H37Rv growth with meropenem, percent inhibition; hits of this screen are not shown here;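 active = about 74% or more and at least 40 points above the plate without the antibiotic, then above 30% in a dose series; inconclusive = first-round hits that could not be retested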;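 also: growth measured after seven days incubation then overnight dye step; 0% = bacteria only wells and 100% = bacteria with antibiotic; twin plates without the antibiotic show which effects depend on it; some results filed as inactive read as strong as hits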
YopH inh = blocks Yersinia enterocolitica YopH tyrosine phosphatase. fluorescence Ex485/Em525. inhibition, %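 (about 10 µM by stock and volumes)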. 140,000 compounds, 0.16% hits. AID 898;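 active = inhibition of 50% or more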;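 also: controls were vehicle for no effect and minimum signal wells for full effect; inactives centre near -20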
RecA splice inh = blocks M. tuberculosis RecA intein splicing. cell-free RecA intein splicing, fluorescence. 290,000 compounds, 0.75% hits. inhibition, %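 (about 9 µM by stock and volumes)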. P9WHJ3; in the data active = inhibition above about 30%; inconclusive = no clear call, values can overlap the other calls;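 also: 0% = vehicle wells and 100% = reference inhibitor control wells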
Target sequence (P9WHJ3 whole entry, looked up, canonical isoform): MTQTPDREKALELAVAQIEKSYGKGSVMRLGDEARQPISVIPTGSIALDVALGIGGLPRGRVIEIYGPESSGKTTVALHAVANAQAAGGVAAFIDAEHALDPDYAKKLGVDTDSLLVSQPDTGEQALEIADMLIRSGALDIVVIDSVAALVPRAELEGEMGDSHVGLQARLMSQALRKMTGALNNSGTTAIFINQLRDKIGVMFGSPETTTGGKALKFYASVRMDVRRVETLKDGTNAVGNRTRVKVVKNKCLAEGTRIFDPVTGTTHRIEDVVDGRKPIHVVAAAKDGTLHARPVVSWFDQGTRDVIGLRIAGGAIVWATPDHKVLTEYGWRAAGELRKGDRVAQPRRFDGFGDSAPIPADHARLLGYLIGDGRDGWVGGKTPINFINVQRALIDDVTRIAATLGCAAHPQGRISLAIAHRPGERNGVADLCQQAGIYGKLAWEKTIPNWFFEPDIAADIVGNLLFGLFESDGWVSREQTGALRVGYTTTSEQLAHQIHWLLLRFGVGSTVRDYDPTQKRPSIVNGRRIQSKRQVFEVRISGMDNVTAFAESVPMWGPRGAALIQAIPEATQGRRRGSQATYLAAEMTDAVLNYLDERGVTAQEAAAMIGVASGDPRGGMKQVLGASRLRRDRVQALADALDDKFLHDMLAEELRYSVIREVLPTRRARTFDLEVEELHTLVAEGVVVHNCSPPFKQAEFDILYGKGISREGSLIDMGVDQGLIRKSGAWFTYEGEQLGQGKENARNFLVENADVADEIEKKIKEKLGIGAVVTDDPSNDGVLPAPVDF
Arbovirus inh repeat = further read-out of Arbovirus inh, marked with its call; inhibition, %; measured here: 10K subset replicate screen; many hits read low in the repeat;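 first of two repeat runs on a subset; 0% = infected and 100% = uninfected wells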
Numbers without * were called inactive; i = inactive; ? = inconclusive; / = no result given. This is a subset, so the mix of outcomes need not match the whole.

Start of the data: the first 17 compounds (preview)
SMILES	Arbovirus inh	Mtb growth	Mtb bLac sens	YopH inh	RecA splice inh	others
Cc1cc(Oc2ccc(Br)cc2)nc(SCC(=O)c2ccccc2)n1	10	8%	3	-26	-1.3
C=CCn1c(COc2ccc(CC)cc2)nnc1SCC(=O)NC1CCS(=O)(=O)C1 (stereo not given)	6	-2%	-17	-21	-0.6
Cc1nc(Cc2nnc(SCc3nc(N)nc(Nc4ccccc4C)n3)o2)cs1	-7	-10%	-5	-16	1.7	Arbovirus inh repeat=1
CC(=O)c1c(C(C)=O)c(C)n(NC(=O)c2ccccc2O)c1C	-1	-3%	-13	-39	-0.6
CC1CC(C)CN(C(=O)Nc2ccc(Br)cc2)C1 (stereo not given)	5	7%	0	/	2.0
COCCn1c(-c2ccc(F)cc2)nc2oc3cc(OC)ccc3c(=O)c2c1=O	/	0%	9	/	0.0
O=C(NC(Cc1c[nH]c2ccccc12)C(=O)NCc1ccc(F)cc1)OCc1ccccc1 (stereo not given)	12	6%	3	-30	2.1
CCOC(=O)CN1CC23C=CC(O2)C(C(=O)NC2CCCCCC2)C3C1=O (stereo not given)	-1	-2%	1	-27	0.0	Arbovirus inh repeat=-1
CCN(CC)CCC(=O)NC(C)(C)Cc1ccc(O)cc1	2	7%	2	-8	1.2
Cc1nnc2n(-c3ccccc3)c(=O)c3c4c(sc3n12)CC(C)CC4 (stereo not given)	-4	-8%	-8	-6	-0.2
C=CCNc1nc(NC(C)(C)CO)nc(OCC)n1	3	-9%	-15	-16	0.1
CCCCC(CC)CNC(=O)C(Cc1ccccc1)NS(=O)(=O)c1ccc2c(c1)CCC(=O)N2 (stereo not given)	-10	0%	-5	/	1.7
COc1ccc(NC(=O)CN2CCN(c3ccc(F)cc3)CC2)cc1	/	/	-2	/	-1.1
CCc1ccc(CN2CCN(C(=O)c3ccco3)CC2)cc1	/	/	1	/	0.5
Cc1ccc(C(c2nnnn2CCC(C)C)N2CCN(C)CC2)cc1 (stereo not given)	10	-15%	-3	0	/
Cc1cc(C)n2nc(SCC(=O)N(CC(C)C)c3c(N)n(CC(C)C)c(=O)[nH]c3=O)nc2n1	2	2%	-6	/	0.4
Cc1nc2c(C(=O)NCCC3=CCCCC3)c[nH]n2c(=O)c1Cl	30	-8%	-4	-49	6.8

Main list, repeating the preview:
SMILES	Arbovirus inh	Mtb growth	Mtb bLac sens	YopH inh	RecA splice inh	others
Cc1cc(Oc2ccc(Br)cc2)nc(SCC(=O)c2ccccc2)n1	10	8%	3	-26	-1.3
C=CCn1c(COc2ccc(CC)cc2)nnc1SCC(=O)NC1CCS(=O)(=O)C1 (stereo not given)	6	-2%	-17	-21	-0.6
Cc1nc(Cc2nnc(SCc3nc(N)nc(Nc4ccccc4C)n3)o2)cs1	-7	-10%	-5	-16	1.7	Arbovirus inh repeat=1
CC(=O)c1c(C(C)=O)c(C)n(NC(=O)c2ccccc2O)c1C	-1	-3%	-13	-39	-0.6
CC1CC(C)CN(C(=O)Nc2ccc(Br)cc2)C1 (stereo not given)	5	7%	0	/	2.0
COCCn1c(-c2ccc(F)cc2)nc2oc3cc(OC)ccc3c(=O)c2c1=O	/	0%	9	/	0.0
O=C(NC(Cc1c[nH]c2ccccc12)C(=O)NCc1ccc(F)cc1)OCc1ccccc1 (stereo not given)	12	6%	3	-30	2.1
CCOC(=O)CN1CC23C=CC(O2)C(C(=O)NC2CCCCCC2)C3C1=O (stereo not given)	-1	-2%	1	-27	0.0	Arbovirus inh repeat=-1
CCN(CC)CCC(=O)NC(C)(C)Cc1ccc(O)cc1	2	7%	2	-8	1.2
Cc1nnc2n(-c3ccccc3)c(=O)c3c4c(sc3n12)CC(C)CC4 (stereo not given)	-4	-8%	-8	-6	-0.2
C=CCNc1nc(NC(C)(C)CO)nc(OCC)n1	3	-9%	-15	-16	0.1
CCCCC(CC)CNC(=O)C(Cc1ccccc1)NS(=O)(=O)c1ccc2c(c1)CCC(=O)N2 (stereo not given)	-10	0%	-5	/	1.7
COc1ccc(NC(=O)CN2CCN(c3ccc(F)cc3)CC2)cc1	/	/	-2	/	-1.1
CCc1ccc(CN2CCN(C(=O)c3ccco3)CC2)cc1	/	/	1	/	0.5
Cc1ccc(C(c2nnnn2CCC(C)C)N2CCN(C)CC2)cc1 (stereo not given)	10	-15%	-3	0	/
Cc1cc(C)n2nc(SCC(=O)N(CC(C)C)c3c(N)n(CC(C)C)c(=O)[nH]c3=O)nc2n1	2	2%	-6	/	0.4
Cc1nc2c(C(=O)NCCC3=CCCCC3)c[nH]n2c(=O)c1Cl	30	-8%	-4	-49	6.8
O=C(Nc1ccc(S(=O)(=O)NCc2ccccc2)cc1)c1ccccc1[N+](=O)[O-]	-4	5%	2	2	0.7
O=C(c1ccco1)N(Cc1cccc([N+](=O)[O-])c1)c1ccc(Br)cc1	-1	1%	6	/	-0.6
Cc1ccccc1N1C(=O)c2ccccc2NC1c1ccncc1 (stereo not given)	-2	6%	-3	-39	-2.0
CC(C)c1ccc2c(c1)[C@H]1OCC[C@H]1[C@@H](c1cccs1)N2	-4	11%	1	-16	1.4
COc1cc(CCC(=O)OCC(=O)NC(=O)c2ccc(Cl)cc2)cc(OC)c1OC	24	12%	-2	/	-3.4
COC(=O)c1cccc(NC(=O)CSc2nc(C)cc(=O)[nH]2)c1	4	-10%	0	22	-0.3
Cc1ccc(S(=O)(=O)Nc2ccc(O)c(Sc3ncn[nH]3)c2)cc1	9	5%	-1	/	-1.4
Cc1ccc(NS(=O)(=O)c2cccs2)nc1	/	/	-17	/	-2.0
COC(=O)C1=C(CCc2ccccc2)NC(=O)NC1c1ccc(Cl)cc1 (stereo not given)	/	3%	3	/	0.4
O=Nc1ccc(O)c2ncccc12	/	?	99	/	1.7
CN(C(=O)CCN1C(=O)C2C3C=CC(C3)C2C1=O)c1ccccc1 (stereo not given)	-4	-21%	-15	/	1.8
COc1cccc(/C=N/NC(=O)CSc2nnc(C)n2-c2ccccc2)c1OC	4	-7%	-13	-5	0.6
CCOC(=O)c1ccc(Oc2nc(NC)nc(OC)n2)cc1	0	-9%	-2	-17	2.7
Nc1nonc1C(=O)NCCNc1ncccc1[N+](=O)[O-]	1	9%	-10	/	5.6
O=C(c1cc2ccccc2o1)N1CCN(S(=O)(=O)/C=C/c2ccccc2)CC1	4	-5%	-8	/	-2.4
CCn1c(CNC(=O)c2ccco2)nnc1SCC(=O)Nc1ccc(Br)cc1F	-6	-9%	-13	-29	-2.5
CCOC(=O)N1CCN(C(=O)c2ccc3c(=O)n(CC4CCCO4)c(=S)[nH]c3c2)CC1 (stereo not given)	-6	-8%	-5	-30	-0.9
Cc1ccc(NC(=O)C2CCN(S(=O)(=O)c3c(C)n[nH]c3C)CC2)c(C)c1	/	/	2	/	0.8
CC(C)N(C1=N/C(=C\c2ccco2)C(=O)N1c1ccccc1)C(C)C	-1	4%	-5	-24	-1.2
O=[N+]([O-])c1ccc(S(=O)(=O)N/N=C/c2ccc3c(c2)OCO3)cc1	/	/	-4	/	-0.6
Cc1ccc(-c2noc(CCC(=O)NCc3ccc4c(c3)OCO4)n2)cc1	-10	3%	3	-28	1.2
Cc1cccn2c(=O)c3cc(C(=O)NCC4CCCO4)c(=N)n(CCN4CCOCC4)c3nc12 (stereo not given)	-5	/	-4	-20	i
CCN1CCCC1CNC(=S)Nc1ccc(C(C)=O)cc1 (stereo not given)	11	-2%	2	/	2.9
CC(C)=CCN1CCN(Cc2cc(F)ccc2-n2nc(C)cc2C)CC1CCO (stereo not given)	0	-2%	-2	/	-3.9
O=C(CN1CCCCC1)Nc1cccc2c1OCO2	2	-2%	-10	-14	-2.7
COc1ccc(C(=O)c2ccc(CC#N)s2)cc1	-16	11%	4	-16	-2.1
COc1ccc(C2=NN(c3nc(-c4ccccc4)c(CC(=O)O)s3)C(c3ccco3)C2)cc1 (stereo not given)	12	5%	-1	1	/
COc1c2c(nc3occc13)C(CCC(C)(C)O)(OC)C(O)CC2 (stereo not given)	5	-5%	-4	-19	0.7
CSc1ncccc1C(=O)Nc1ccc(S(=O)(=O)Nc2nccs2)cc1	8	2%	-11	-33	0.6
CCC(C)[C@H](NC(=O)Nc1ccc(S(N)(=O)=O)cc1)C(=O)OC (stereo not given in full)	/	-13%	2	/	-0.5
COc1cc(-n2c(C)nc3cc(C(=O)O)ccc32)cc(OC)c1OC	3	-2%	-6	/	5.6
CN(C)c1cccc(C(=O)Nc2nnc(Cc3ccccc3)s2)c1	/	/	6	/	-1.8
CC(NC(=O)COC(=O)COc1cccc2c1OC(C)(C)C2)c1ccccc1 (stereo not given)	/	/	-12	/	0.7
N#C/C(=N\O)c1nc2ccccc2s1	-3	3%	-9	/	/
COc1ccc(OC)c(NC(=O)CSC2=NN3CCCC(=O)N=C3S2)c1	/	/	-3	/	-0.4
O=C(Nc1ccc2oc(-c3ccccc3F)nc2c1)c1cncc(Br)c1	-18	-9%	4	-33	2.9
O=C(c1cc(=O)[nH]c2ccccc12)N1CC=C(c2ccccc2)CC1	/	/	-1	/	0.8
CC1CC(C)CN(CCOc2cccc3ccccc23)C1 (stereo not given)	/	/	0	/	2.2
Cc1cc(C)n(-c2nc3ccccc3nc2N2CCCCCC2)n1	3	6%	7	-38	4.4
Cc1ccsc1C(=O)NCCc1nnc2ccccn12	/	/	-7	/	0.4
CCCCCNC(=O)c1ccc2c(=O)n(CCOC)c(=O)[nH]c2c1	-8	-7%	-8	-12	6.3
C(=N\N1CCOCC1)/c1cn(-c2ccccc2)nc1-c1ccccc1	22	14%	3	/	-0.9
Cc1ccc(S(=O)(=O)Nc2nc3ccccc3s2)cc1	11	-11%	-5	1	-2.0

The list goes on; it opens with the four that closed the last part.
SMILES	Arbovirus inh	Mtb growth	Mtb bLac sens	YopH inh	RecA splice inh	others
Cc1ccsc1C(=O)NCCc1nnc2ccccn12	/	/	-7	/	0.4
CCCCCNC(=O)c1ccc2c(=O)n(CCOC)c(=O)[nH]c2c1	-8	-7%	-8	-12	6.3
C(=N\N1CCOCC1)/c1cn(-c2ccccc2)nc1-c1ccccc1	22	14%	3	/	-0.9
Cc1ccc(S(=O)(=O)Nc2nc3ccccc3s2)cc1	11	-11%	-5	1	-2.0
O=C(CN1CCC(NC(=O)c2ccccc2Cl)CC1)NCc1ccco1	0	0%	5	/	0.0
CC(=O)c1cccc(NC(=O)NC2CC(=O)N(c3ccc4c(c3)OCCO4)C2)c1 (stereo not given)	/	/	-3	/	-1.0
Cc1ccc(NC(=O)N2CCC(NC(=O)c3cccc(C)c3)CC2)cc1	/	/	-2	/	0.7
Cc1nn2c3cc(N4CCOCC4)ccc3nc2c2ccccc12	/	-75%	?	-38	0.5
Cc1cccc(NC(=O)c2sccc2-n2cccc2)c1C	-1	14%	8	-13	2.0
c1nnc2c3c4c(sc3ncn12)CCCC4	13	-5%	/	19	-1.1
CC1CCCN(CC(=O)Nc2ccc(S(=O)(=O)N3CCCCCC3)cc2)C1 (stereo not given)	-12	8%	-4	1	-0.1
Cc1cccc(N2CCN(Cc3ccc4c(c3)OCO4)CC2)c1C	/	/	-3	/	4.6
COc1ccc(-c2onc3ccc(Cl)cc23)cc1	1	/	2	-16	2.1
COc1ccc(N2CCN(C(=O)CSc3nnc4nc(C)cc(C)n34)CC2)cc1	/	-3%	-4	-24	-2.9
O=C(c1cccnc1)N1c2ccccc2Sc2ccccc21	-1	2%	-1	/	-0.7
Cc1ccsc1/C=N/NC(=O)c1ccncc1	9	?	99	/	-3.4
